# HNF4A DNA FP: change in binding of human HNF4 alpha to DNA. P41235. HNF4a-FITC DNA binding, fluorescence polarization, 1 h. activity change, % at 10 µM. actives 0.3% (n = 360,000); in the data active = activity change above about 30%, passing the limit was not always enough;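 also: controls were the assay level and a saturating level of protein; the project sought stronger binding though the title names inhibitors; some compounds called inactive have numbers as strong as hits; positive values seem to mean higher polarization but the record does not say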
# Bfl-1 A1 inh: inhibitors of the anti-apoptotic protein A1, read as caspase activation | caspase activation, % (concentration not given with the values) | AID 2462 | actives 0.066% (n = 330,000) | MEF A1-2A-BIM cells, Caspase-Glo 3/7 luminescence, 3 h; percent of clofoctol response, vehicle zero;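 active = over half of replicate activation scores above 10%, or exactly half above 10 with the replicate mean above 10; inconclusive = replicate mean below 10 yet half the replicates above 10; inactive = over half of replicates below 10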;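 also: wells of about 30 µL received 50 nL stock; many hits fall short of the cut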
# Vif A3G: inhibitors of Vif binding to APOBEC3G peptide, primary screen, biochemical, TR-FRET, GST-Vif 1-94, biotin-A3G peptide, dose response retest (AID 1117319). TR-FRET GST-Vif / biotin-A3G peptide binding; higher % means a stronger effect; test concentration not given here; strong numbers were not always called active. one-dose inhibition, %; IC50 in µM for titrated hits. actives 0.57% (n = 260,000);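 active = above the screen mean plus three standard deviations and confirmed in dose response; inconclusive = results disagree or hit not tested in dose response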;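 also: Vif residues 1-94 fused to GST binding biotinylated APOBEC3G peptide 110-148; 0% = full assay without inhibitor and 100% = GST in place of GST-Vif; retest series ran down from 100 µM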
# E coli growth: inhibitors of Escherichia coli growth | OD600, 23 h; active compounds read low | OD600 absorbance (no concentration beside the values) | actives 0.21% (n = 330,000) | AID 1053175;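 active = OD600 absorbance below the run mean of sample wells minus 3.6 SD, in any replicate, cut at about 0.56 in these data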;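 also: stock transfer was 300 nL into about 60 µL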
# LANA-H2B inh: blocks KSHV LANA binding to histone H2A/H2B; Q9QR71; cell-free LANA-H2A/H2B peptide, fluorescence polarization; inhibition, % (concentration not given with the values); actives 0.6% (n = 320,000); AID 2629; in the data active = inhibition mostly above about 10%, no sharp cut-off; inactive = mostly below about 6.7%;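 also: stock transfer was 7.5 nL into about 10 µL; 0% = median of vehicle wells and 100% = median of positive control wells; one replicate is shown; the record names a cut of 25% in any replicate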
# Target sequence (Q9QR71 whole entry, looked up): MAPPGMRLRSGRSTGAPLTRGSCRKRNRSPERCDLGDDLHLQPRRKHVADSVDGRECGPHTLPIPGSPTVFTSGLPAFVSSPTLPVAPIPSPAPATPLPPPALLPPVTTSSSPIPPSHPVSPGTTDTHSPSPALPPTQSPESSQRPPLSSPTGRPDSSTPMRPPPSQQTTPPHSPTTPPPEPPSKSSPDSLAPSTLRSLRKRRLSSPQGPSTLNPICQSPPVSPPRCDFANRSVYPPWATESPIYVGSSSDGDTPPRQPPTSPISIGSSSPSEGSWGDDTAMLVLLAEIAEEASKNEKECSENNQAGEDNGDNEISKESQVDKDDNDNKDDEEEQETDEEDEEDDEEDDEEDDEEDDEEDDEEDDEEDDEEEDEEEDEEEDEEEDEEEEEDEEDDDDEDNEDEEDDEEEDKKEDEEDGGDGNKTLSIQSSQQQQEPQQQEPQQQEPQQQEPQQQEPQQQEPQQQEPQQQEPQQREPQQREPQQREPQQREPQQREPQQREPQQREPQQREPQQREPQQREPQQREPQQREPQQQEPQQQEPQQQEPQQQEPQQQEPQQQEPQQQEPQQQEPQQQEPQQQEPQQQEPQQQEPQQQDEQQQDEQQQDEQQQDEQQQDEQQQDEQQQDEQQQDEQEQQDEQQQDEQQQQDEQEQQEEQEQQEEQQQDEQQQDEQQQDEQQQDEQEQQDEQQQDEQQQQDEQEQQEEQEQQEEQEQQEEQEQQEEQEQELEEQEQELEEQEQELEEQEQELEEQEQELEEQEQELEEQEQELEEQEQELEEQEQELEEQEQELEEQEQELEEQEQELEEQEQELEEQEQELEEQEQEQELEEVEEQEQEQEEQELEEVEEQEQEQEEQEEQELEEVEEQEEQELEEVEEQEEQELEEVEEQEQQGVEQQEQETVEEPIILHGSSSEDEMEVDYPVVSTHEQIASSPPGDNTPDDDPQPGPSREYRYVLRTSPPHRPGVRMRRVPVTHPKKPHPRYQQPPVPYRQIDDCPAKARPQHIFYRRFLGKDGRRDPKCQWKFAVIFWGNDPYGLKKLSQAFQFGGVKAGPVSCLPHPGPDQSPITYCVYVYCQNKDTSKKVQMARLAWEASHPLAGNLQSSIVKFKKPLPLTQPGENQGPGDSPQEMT
# UCH37 DUB inh: inhibitors of human deubiquitinating enzyme UCH37. actives 0.33% (n = 330,000). purified proteasome/UCH37, Ub-AMC cleavage fluorescence. inhibition, % (concentration not given with the values);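 active = mean of two replicates above 20%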;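 also: 0% = compound-free wells with enzyme and 100% = wells lacking proteasome; stock transfer was 100 nL into about 20 µL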
#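 Assay system: Proteasome-bound UCH37. Buffer or medium: pH 7.4 Tris-HCl (50 mM) with ovalbumin, ATP-MgCl2, DTT. Incubation: 30 min preincubation with enzyme, 25 min cleavage at room temperature. Measured by: fluorescence, ex 355 nm, em 460 nm. Read-out basis: percent inhibition. Control set: wells without proteasome as full block, compound-free enzyme plus substrate as uninhibited.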
# B2AR ag: activates human beta-2 adrenergic receptor causing internalization | P07550 | Am2.2-beta2AR cells, FAP receptor internalization, flow cytometry; reference of the scale not given here | response, % (concentration not given with the values) | actives 0.43% (n = 340,000) | AID 504454;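 active = response above a set limit, near 3 SD of response in nonfluorescent compounds, cut at about 42% in these data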;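 also: stock transfer was 100 nL into about 11 µL; a reference agonist was the positive control; negative values mostly stem from fluorescent compounds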
# Active calls of the source: *; i = inactive; ? = inconclusive; / = not tested or not shown; & = joins results of further samples.
SMILES,HNF4A DNA FP,Bfl-1 A1 inh,Vif A3G,E coli growth,LANA-H2B inh,UCH37 DUB inh,B2AR ag
Cc1ccc(CSc2nnc(SCC(=O)N/N=C/c3ccccc3OCC(=O)O)s2)cc1,-3.0,-1.5,0%,/,3.3,/,9
Cc1cc(C)c(NC(=O)CNC(=O)c2ccc(-n3cncn3)c([N+](=O)[O-])c2)c(C)c1,4.5,0.4,0%,0.67,-4.2,1.3,-2
COc1ccc(C(=O)NC(=S)NNC(=O)CCc2ccccc2)cc1,-2.8,-0.3,-18%,0.63,1.7,0.1,2
O=[N+]([O-])c1cccc(SSc2cccc([N+](=O)[O-])c2)c1,-4.1,/,8%,0.54*,/,3.2,3
COc1ccc(NC(=O)C(=O)N2N=C3CCCCC3C2(O)C(F)(F)F)cc1 (stereo not drawn),-0.1,0.6,/,0.68,-0.5,-0.1,0
CN(CC(=O)Nc1ccc(F)cc1)C(=O)c1ccc(N2C(=O)CCC2=O)cc1,-1.3,0.7,/,0.66,-0.6,0.5,-6
COc1ccc(NS(=O)(=O)c2cc(NC(=O)c3cnc(C)cn3)ccc2N2CCCC2)cc1,-0.1,-0.8,13%,0.72,-0.9,4.4,-8
COc1ccc(CC2=CC(=O)c3ccccc3C2=O)cc1,-0.1,-0.4,29%,0.65,-0.7,-18,56*
CC(Oc1ccccc1F)C(=O)NNC(=O)c1cc2ccccc2o1 (stereo not drawn),-1.9,0.5,-5%,0.72,-4.4,1.0,-3
Cc1c(C(=O)NN2CCOCC2)oc2ccccc12,-0.9,-0.3,-5%,0.67,-0.3,-0.7,-5
COc1cc(SC)ccc1C(=O)NNC(=O)C1COc2ccccc2O1 (stereo not drawn),1.1,2.5,-8%,0.66,1.7,-43,-3
Cc1c(-c2ccccc2)c(=O)oc2cc(O)ccc12,-2.5,-1.9,-8%,0.69,-2.4,i,-1
Cc1ccc(N(C(=O)c2sc(C)nc2C)C(C(=O)NCc2ccco2)c2ccccc2)cc1 (stereo not drawn),-2.0,1.1,-2%,0.66,-0.2,2.0,-1
Cc1ccsc1/C=C(\C#N)C(=O)NCCCN1CCOCC1,-4.8,0.6,-6%,0.69,-0.4,14,-12
CSC1=N/C(=C/c2ccc(-n3cncn3)cc2)C(=O)N1,1.2,0.2,23%,0.71,-1.8,5.8,-3
Cc1nc(-c2ccc(NS(=O)(=O)c3ccccc3)cc2)cs1,-0.6,-0.2,/,0.65,-0.9,2.3,3
O=C(CNC(=O)c1cccs1)OCC(=O)c1ccccc1,-0.3,-0.7,-3%,0.66,-1.0,-1.4,6
Cc1c(Br)cc(-c2nnco2)cc1Br,-1.8,-0.4,4%,0.75,-0.1,1.9,-1
CCCN(C(=O)c1ccc(OCC(C)C)cc1)c1c(N)n(Cc2ccccc2)c(=O)[nH]c1=O,-1.9,0.7,4%,0.64,-1.1,-0.2,-18
Cc1c(CCO)c(=O)n(-c2ccccc2)n1S(=O)(=O)c1ccc([N+](=O)[O-])cc1,3.4,1.1,28%,0.68,-0.3,3.3,0
O=C(NC1CCc2ccccc21)C1CCN(S(=O)(=O)c2ccc(Cl)cc2)CC1 (stereo not drawn),0.4,-0.4,/,0.68,3.8,1.4,4
c1ccc2c(c1)OCC(c1csc3ncnc(N4CCCCC4)c13)O2 (stereo not drawn),-0.8,0.4,3%,0.72,1.3,2.5,-15
CCOc1cc(NC(=O)c2cccs2)c(OCC)cc1NC(=O)c1cccnc1,1.6,0.0,/,0.66,3.3,-63,-27
COc1ccc(C(=O)OCC(=O)N(C)C2CCS(=O)(=O)C2)cc1S(=O)(=O)N1CCCc2ccccc21 (stereo not drawn),1.3,0.5,3%,0.7,-6.1,2.0,3
COc1cccc(-c2nc(CS(=O)(=O)CC(=O)Nc3cccc(C)c3C)c(C)o2)c1,-0.3,1.1,-1%,0.77,0.5,0.6,-12
CC(C)(CSc1ncccn1)NS(=O)(=O)c1ccccc1,-1.8,0.7,-11%,0.68,0.2,1.2,-7
O=C(NCc1ccc(OC(F)(F)F)cc1)c1cccc2c1C(=O)c1ccc(N3CCCC3)cc1S2(=O)=O,99,-0.6,/,0.68,1.6,-0.4,-17
Cc1c(Cl)cnc(NC(=O)COC(=O)c2nn(C)c(=O)c3ccccc23)c1Cl,-3.3,0.0,/,0.71,-2.6,2.2,-6
COCCNC(=O)CN1C(=O)NC2(CCOc3ccccc32)C1=O (stereo not drawn),3.6,0.6,/,0.69,3.4,2.6,8
CN(C)S(=O)(=O)c1cccc(COC(=O)CN2C(=O)NC3(CCCC3)C2=O)c1,-1.1,0.6,2%,0.72,5.3,-0.3,4
CC1CCCCN1CCCNC(=O)C1CCN(c2nc3ccccc3o2)CC1 (stereo not drawn),-3.8,0.4,76%,0.75,0.5,4.2,-21
O=C(Cn1nnc2c(cnn2-c2ccccc2)c1=O)N1CCN(c2ccccc2F)CC1,-0.1,-0.6,1%,0.72,-0.4,-0.7,15
CCOC(=O)c1ccccc1NC(=O)COc1ccccc1,3.9,-0.5,4%,0.69,2.3,3.0,7
CN1C(=O)C(CC#N)(C2(CC#N)C(=O)N(C)c3ccccc32)c2ccccc21 (stereo not drawn),1.3,/,-4%,/,/,/,1
O=C(O)[C@H](CO)Nc1ncnc2sc3c(c12)CCC3,0.6,0.1,4%,0.67,4.0,4.0,7
COCCNc1nc(C)cc(-c2cc(C(=O)NC3CCCC3)on2)n1,14,-4.0,-16%,0.64,-2.4,-2.2,-4
CCCCOc1ccc(C(=O)NCC(=O)NCCOc2ccccc2OC)cc1,-4.4,1.1,-8%,0.7,-5.9,1.7,-2
O=C(CCC1COc2ccccc2O1)Nc1ccc(Cl)cn1 (stereo not drawn),-2.3,0.5,-7%,0.66,6.4,2.1,-4
O=c1[nH]c(/C=C\c2cccc(Cl)c2)nc(O)c1[N+](=O)[O-],-3.7,0.3,3%,0.69,-0.2,11,-3
O=C(Nc1cccc(Cl)c1Cl)C1CCCC1,-0.2,0.2,/,0.68,5.3,-1.7,-3

# Some of the entries above in a different format:
smiles: COCCNc1nc(C)cc(-c2cc(C(=O)NC3CCCC3)on2)n1
  HNF4A DNA FP: 14 | Bfl-1 A1 inh: -4.0 | Vif A3G: -16% | E coli growth: 0.64 | LANA-H2B inh: -2.4 | UCH37 DUB inh: -2.2 | B2AR ag: -4
smiles: O=C(CCC1COc2ccccc2O1)Nc1ccc(Cl)cn1 (stereo not drawn)
  HNF4A DNA FP: -2.3 | Bfl-1 A1 inh: 0.5 | Vif A3G: -7% | E coli growth: 0.66 | LANA-H2B inh: 6.4 | UCH37 DUB inh: 2.1 | B2AR ag: -4
smiles: Cc1nc(-c2ccc(NS(=O)(=O)c3ccccc3)cc2)cs1
  HNF4A DNA FP: -0.6 | Bfl-1 A1 inh: -0.2 | Vif A3G: / | E coli growth: 0.65 | LANA-H2B inh: -0.9 | UCH37 DUB inh: 2.3 | B2AR ag: 3
smiles: O=C(O)[C@H](CO)Nc1ncnc2sc3c(c12)CCC3
  HNF4A DNA FP: 0.6 | Bfl-1 A1 inh: 0.1 | Vif A3G: 4% | E coli growth: 0.67 | LANA-H2B inh: 4.0 | UCH37 DUB inh: 4.0 | B2AR ag: 7

# Remaining list, next part
SMILES,HNF4A DNA FP,Bfl-1 A1 inh,Vif A3G,E coli growth,LANA-H2B inh,UCH37 DUB inh,B2AR ag
COc1ccc(C)cc1-n1nnnc1SCC(=O)Nc1cc(C)on1,-3.4,0.4,28%,0.77,5.3,0.6,-9
CC1CCc2sc(C(=O)N/N=C/c3ccc([N+](=O)[O-])cc3)cc2C1 (stereo not drawn),-3.0,0.0,-4%,/,2.8,/,-7
N#Cc1cc(Sc2ccccn2)c(Sc2ccccn2)cc1C#N,1.5,-1.0,-145%,0.75,0.2,2.5,58*
CC(=O)Nc1cccc(Oc2nc(-c3ccccn3)nc3ccccc23)c1,3.2,0.4,17%,/,4.0,/,-17
Cc1onc(-c2c(Cl)cccc2Cl)c1C(=O)NCc1cccs1,-3.3,0.1,-8%,0.72,-4.2,3.0,4
c1ccc2c(C[n+]3csc4ccccc43)cccc2c1,2.0,-0.7,13%,0.73,-1.0,2.5,15
Cc1cc(C)n(/N=C/c2ccco2)c(=O)c1C#N,1.2,-0.3,11%,/,2.1,/,2
COc1cc(NC(C(=O)Nc2cccc(C(C)=O)c2)c2ccccc2)cc(OC)c1OC (stereo not drawn),-7.6,0.4,/,0.72,-3.4,1.5,4
CCC(=O)N1c2ccccc2NC2=C(C(=O)CCC2)C1c1ccco1 (stereo not drawn),0.3,-0.2,-8%,0.68,5.8,6.2,3
C1CCc2c(nc3nnnn3c2NCC2CC2)C1,3.0,-0.2,-4%,0.7,-4.8,1.3,-3
O=C(NC1CC1)c1ccc(CS(=O)c2ccccc2)o1 (stereo not drawn),-1.5,-0.7,1%,0.74,-0.2,6.9,-3
CN(C(=O)COC(=O)/C=C/c1ccc(C(F)(F)F)cc1)c1c(N)n(Cc2ccccc2)c(=O)[nH]c1=O,-1.4,0.1,1%,0.65,-0.6,1.5,0
O=C(CSc1nnnn1-c1ccc2c(c1)OCCO2)N1CCc2ccccc21,5.4,-0.1,2%,0.65,-4.3,-1.2,-11
COc1ccc(NC(=O)CSc2nnc(-c3ccccc3Cl)n2Cc2ccco2)c(OC)c1,1.0,0.6,-2%&8%,0.73,4.3,2.8,-2
O=C(Cn1c(=O)oc2cc(S(=O)(=O)N3CCCC3)ccc21)Nc1ccccc1Br,4.4,0.7,8%,0.64,-4.4,1.3,-5
O=S(=O)(NC1c2cccc3cccc(c23)C1Sc1ncccn1)c1ccccc1 (stereo not drawn),-0.3,0.0,14%,0.72,2.8,5.5,0
C[N+](C)(C)CCCCCC[N+](C)(C)C,0.1,?,/,0.68,1.8,5.4,0
Nc1nonc1C(=O)NCCNCc1c(OCc2ccccc2F)ccc2ccccc12,4.1,0.0,0%,0.66,-1.4,4.0,26
COc1ccccc1OCC(=O)NC1CCCCCCC1,1.9,0.0,/,0.72,-0.3,3.7,-1
CC(Oc1ccc(Cl)cc1)C(=O)/C=C/N(C)C (stereo not drawn),1.6,0.4,14%,0.71,4.5,2.8,-5
CCc1ccc(NC(=O)CS(=O)CC(=O)NCC2OCCc3ccccc32)cc1 (stereo not drawn),-0.9,0.7,1%,0.73,1.6,3.8,-8
O=C(CN1C(=O)NC2(CCOc3ccccc32)C1=O)NCc1ccc(F)cc1 (stereo not drawn),0.3,-0.3,-6%,0.68,-0.6,1.8,-6
COc1ccc(NC(=O)NC2(C(=O)N3CCCCCC3)CCCCC2)cc1,-3.3,0.3,-1%,0.69,-2.0,0.5,-4
CC(=O)c1cccc(Nc2cc(C)nc3c(C)cccc23)c1,3.4,-0.7,10%,0.65,-3.3,8.9,-18
CO/N=C/c1ccc(Oc2ccc(C)cc2)nc1,-2.0,-1.3,0%,/,-0.6,/,-2
COc1ccc(-c2cn[nH]c2-c2ccc(O)cc2O)cc1OC,-4.0,0.7,-2%,0.69,3.4,5.0,15
COc1cccc(CC(=O)NCC2(N3CCCCC3)CCCCC2)c1,1.0,-0.1,-6%,0.61,2.1,1.1,14
CCOC(=O)c1c(C=O)c(C)n(Cc2ccccc2)c1C,1.2,1.0,5%,0.71,-6.3,4.0,2
COc1ccccc1NC(=O)C(=O)NNC(=O)COc1ccc2ccccc2c1,-0.9,0.6,/,/,-0.7,/,4
Cc1ccc(S(=O)(=O)CNC(=S)c2ccc3ccccc3c2)cc1,3.1,-0.6,1%,0.64,2.7,3.1,9
CC(C)Cc1nnc(NC(=O)C2CSC3(C)CCC(=O)N23)s1 (stereo not drawn),4.0,0.1,0%,0.62,0.2,2.1,-2

# Compound activity from PubChem BioAssay.
